Screening results deposited in PubChem BioAssay by several laboratories.
Ecoli rRNA inh: selective bacterial rRNA inhibition in E. coli; actives 1.6% (n = 350,000); GFP signal change (wild-type ribosome), % (test concentration not listed); E. coli WT GFP vs humanized-ribosome RFP mutants, fluorescence, 24 h; active compounds read low; DMSO median 0, no signal -100;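 active = significant combined selectivity score with lowered wild-type GFP, culture density cut under 30%, mutant RFP and density less affected; inactive = any of these conditions unmet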; note: one replicate is shown; some compounds called inactive have numbers as strong as hits
MLL AF4-AF9 inh: MLL-AF4/AF9 protein interaction inhibition; AlphaScreen, biotin-AF4 peptide binding to FLAG-AF9; actives 0.47% (n = 350,000); inhibition, % at 10 µM; P42568;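 active = every replicate reaching a set inhibition limit, whatever the replicate mean, cut at about 25% in these data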;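 note: 0% = plate neutral control median and 100% = total signal loss; the record names both 10 and 1 µM as test concentration; the first replicate is given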
Target sequence (P42568 whole entry, looked up): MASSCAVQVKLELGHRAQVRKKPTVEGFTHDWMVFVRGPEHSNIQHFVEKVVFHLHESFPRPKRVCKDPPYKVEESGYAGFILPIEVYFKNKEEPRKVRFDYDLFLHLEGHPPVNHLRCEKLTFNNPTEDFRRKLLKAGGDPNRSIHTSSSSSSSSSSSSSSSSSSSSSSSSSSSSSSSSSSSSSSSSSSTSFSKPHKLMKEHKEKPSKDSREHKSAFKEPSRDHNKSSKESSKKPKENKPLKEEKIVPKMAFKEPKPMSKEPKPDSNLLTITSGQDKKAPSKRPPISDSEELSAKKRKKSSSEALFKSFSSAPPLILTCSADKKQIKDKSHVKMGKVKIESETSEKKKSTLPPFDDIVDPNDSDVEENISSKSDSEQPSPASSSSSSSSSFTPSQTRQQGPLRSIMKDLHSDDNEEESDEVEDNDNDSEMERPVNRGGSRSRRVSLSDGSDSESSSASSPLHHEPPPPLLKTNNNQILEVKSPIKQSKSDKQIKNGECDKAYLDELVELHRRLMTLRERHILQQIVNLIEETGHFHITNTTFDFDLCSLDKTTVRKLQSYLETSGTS
UCH37 inh: inhibitors of human deubiquitinating enzyme UCH37. Q9Y5K5. purified proteasome/UCH37, Ub-AMC cleavage fluorescence. inhibition, % (concentration not given with the values). actives 0.33% (n = 330,000). AID 588478;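 active = mean of two replicates above 20%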;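 note: 0% = compound-free wells with enzyme and 100% = wells lacking proteasome; stock transfer was 100 nL into about 20 µL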
Target sequence (Q9Y5K5 whole entry, looked up): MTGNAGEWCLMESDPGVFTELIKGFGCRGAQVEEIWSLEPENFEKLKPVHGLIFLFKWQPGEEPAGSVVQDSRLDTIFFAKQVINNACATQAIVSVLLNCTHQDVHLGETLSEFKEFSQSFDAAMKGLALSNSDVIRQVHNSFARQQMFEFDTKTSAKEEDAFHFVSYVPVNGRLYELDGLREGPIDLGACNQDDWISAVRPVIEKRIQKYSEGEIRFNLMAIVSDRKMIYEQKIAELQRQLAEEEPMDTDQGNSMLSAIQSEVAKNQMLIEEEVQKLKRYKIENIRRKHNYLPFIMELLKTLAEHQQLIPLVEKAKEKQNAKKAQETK
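Material: Human UCH37 enzyme supplied as purified proteasome complex | Schedule: 30 min preincubation with enzyme, 25 min cleavage at room temperature | Detection: AMC fluorescence 355/460 nm | Measure: % inhibition of Ub-AMC cleavage fluorescence | Controls: Wells without proteasome as full block, compound-free enzyme plus substrate as uninhibited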
FGF22 binding: FGF22 (human) thermal shift binding | Q9HCT0 | calls only at 9.99 µM | AID 651658 | recombinant FGF22 thermal shift, SYPRO orange fluorescence; percent of sucrose octasulfate shift, DMSO zero | actives 1.5% (n = 340,000);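 active = melting point raised past a set limit in the mean and every replicate; three in four hits are not shown here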
Target sequence (Q9HCT0 whole entry, looked up): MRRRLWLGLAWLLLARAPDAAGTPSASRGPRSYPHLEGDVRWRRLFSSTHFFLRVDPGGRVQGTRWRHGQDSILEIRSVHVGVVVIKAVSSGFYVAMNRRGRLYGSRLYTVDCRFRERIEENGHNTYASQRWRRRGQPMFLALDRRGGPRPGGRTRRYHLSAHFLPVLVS
E coli growth: inhibitors of Escherichia coli growth; OD600, 23 h; active compounds read low; OD600 absorbance (test concentration not listed); actives 0.21% (n = 330,000);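 active = OD600 absorbance below the run mean of sample wells minus 3.6 SD, in any replicate, cut at about 0.56 in these data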;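 note: stock transfer was 300 nL into about 60 µL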
A1 inh: inhibitors of the anti-apoptotic protein A1, read as caspase activation; AID 2462; MEF A1-2A-BIM cells, Caspase-Glo 3/7 luminescence, 3 h; percent of clofoctol response, vehicle zero; actives 0.066% (n = 330,000); caspase activation, % (no concentration beside the values);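 active = over half of replicate activation scores above 10%, or exactly half above 10 with the replicate mean above 10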;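 note: wells of about 30 µL received 50 nL stock; many hits fall short of the cut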
T cruzi repl: blocks replication of Trypanosoma cruzi; actives 1.4% (n = 300,000); inhibition, % (no concentration beside the values); T. cruzi beta-gal in NIH3T3, luminescence, 90 h;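 active = mean inhibition across valid replicates above about 55%, limit read from the data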;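 note: signal also drops with host cell toxicity which is not excluded here; 0% = plate median of DMSO wells and 100% = zero luminescence signal; higher percent means less beta-gal luminescence so fewer parasites; stock transfer was 50 nL into about 50 µL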
Beta cell apopt: blocks beta cell apoptosis | INS-1E cytokine-induced death, ATP luminescence, 48 h; percent of positive-control rescue, neutral wells zero | actives 0.8% (n = 300,000) | AID 435005 | protection from apoptosis, % (no concentration beside the values);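 active = all replicates at 75% or more, or half of them and the mean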;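 note: 0% = cytokine-treated negative control wells and 100% = positive control rescue; higher means more ATP so stronger rescue from cytokine killing; wells of about 40 µL received 100 nL stock; the first replicate is given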
Ecoli rRNA inh OD600: second read-out of Ecoli rRNA inh, no call of its own (marks repeat the call); OD600 change, %; measured here: OD600 growth;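 optical density of the mix in the first replicate; 0 = DMSO median and -100 = no signal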
Ecoli rRNA inh RFP: second read-out of Ecoli rRNA inh, no call of its own (marks repeat the call); RFP signal change, %; measured here: RFP humanized mutant strains;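 first replicate; 0 = DMSO median and -100 = no signal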
An asterisk follows results filed as active; i = inactive; . = not tested or not shown.

mol | Ecoli rRNA inh | Ecoli rRNA inh OD600 | Ecoli rRNA inh RFP | MLL AF4-AF9 inh | UCH37 inh | FGF22 binding | E coli growth | A1 inh | T cruzi repl | Beta cell apopt
CCOC(=O)c1ccc(-n2c(=O)[nH]c3ccccc3c2=O)cc1 | . | . | . | . | 2.4 | . | 0.715 | -1.1 | -15.1 | 4.7
CN(C)c1ccc(S(=O)(=O)NCC(=O)NCC2CCCCC2)cc1[N+](=O)[O-] | -2.4 | -18.4 | 1.4 | -2.8 | 4.5 | i | 0.674 | -0.1 | -2.2 | -2.7
Cc1ccc(S(=O)(=O)N2CCN(C(=O)CSc3nnnn3C)CC2)c(C)c1 | 16.7 | 8.4 | 1.4 | -0.3 | -2.2 | i | 0.679 | 1.8 | -1.6 | 1.5
Cc1cc(-c2nnc(SCC(=O)Nc3ccc(F)c(F)c3)n2N)n[nH]1 | 2.3 | 7.1 | -0.8 | 0.5 | 6.8 | i | 0.672 | -0.1 | 8.5 | 1.8
COc1cc2c(C(=O)N3CCCc4ccccc43)cn(C)c(=O)c2cc1OC | . | . | . | . | 3.1 | . | 0.645 | 0.8 | 2.9 | -2.4
COc1ccccc1CC(NC(C)=O)C(=O)NC1CCN(C(=O)c2cccc(Cl)c2)CC1 (centres undefined) | 9.7 | 7.4 | 2.1 | -1.2 | 0.7 | i | 0.688 | 1.5 | -5.3 | -1.4
COc1cccc(NC(=S)N(CCCN2CCN(C)CC2)Cc2ccco2)c1 | 4.9 | 0.4 | -0.2 | -7.8 | 1.1 | i | 0.699 | -0.2 | 1.1 | -0.7
CCCCCOC(=O)C1=C(C)Nc2ncnn2C1c1cccs1 (centres undefined) | . | . | . | . | 1.9 | . | 0.686 | 0.6 | 22.0 | 19.5
Cc1nn(-c2ccccc2)c(CC(C)(C)C(=O)O)c1C(=O)O | . | . | . | . | 1.4 | . | 0.755 | 1.3 | -8.7 | .
Cc1ccccc1NC(=O)N1C2CCC1CC(O)(c1cccnc1)C2 (centres undefined) | . | . | . | . | 2.9 | . | 0.716 | 0.2 | -0.9 | -4.5
COc1ccc2ccccc2c1/C=N/NC(=O)c1cccc(Br)c1 | . | . | . | 1.6 | . | i | . | -0.2 | -4.6 | -4.5
CCOC(=O)C(NC(=O)c1ccccc1)C(C)(C)SCc1ccccc1 (centres undefined) | -21.2 | -26.0 | 1.3 | 0.5 | 0.7 | i | 0.685 | . | . | .
COc1cc(C2N(c3ccc(Cl)c(Cl)c3)C(=O)C3CCCN32)cc(OC)c1OC (centres undefined) | . | . | . | . | 3.9 | . | 0.669 | 0.7 | 17.1 | -6.3
Cc1c(C)c(C)c(/C=[N+](/C)[O-])c(C)c1C | 8.9 | -0.1 | -2.2 | 4.4 | 0.6 | i | 0.646 | 1.2 | -7.9 | 1.2
CNn1cnc2ccsc2c1=O | 5.9 | 6.8 | -1.6 | -4.6 | 2.9 | i | 0.674 | -0.3 | -5.1 | 1.4
CN1CCc2c(sc(NC(=O)C3CCN(S(=O)(=O)c4cccs4)CC3)c2C(N)=O)C1 | 3.5 | 4.8 | 3.1 | 2.6 | -1.3 | i | 0.7 | 0.2 | 9.4 | .
CC(C)c1ccc(/C=N/NC(=O)c2cc(-c3cccc([N+](=O)[O-])c3)n[nH]2)cc1 | -10.4 | 3.9 | 2.2 | -1.6 | . | i | . | -0.2 | -8.5 | 4.3
CCOC(=O)c1c(NC(=O)CCC(=O)NCc2ccco2)sc2c1CCCC2 | . | . | . | . | -6.5 | . | 0.743 | 0.4 | 3.9 | -6.7
O=S(=O)(/N=C(/Nc1ccc(F)cc1F)c1ccc(Cl)cc1)c1ccccc1 | . | . | . | . | -0.4 | . | 0.758 | 0.4 | 20.1 | .
C(=C\N1CCCCCC1)/c1nnnn1-c1ccc(-c2ccccc2)cc1 | 15.6 | 8.1 | 19.0 | . | -4.2 | i | 0.711 | -0.6 | 3.9 | 0.3
OCCN1CCN(c2ncnc3c2sc2nc(N4CCOCC4)c4c(c23)CCC4)CC1 | -13.1 | -27.2 | -15.0 | -4.9 | -70.6 | i | 0.723 | 0.3 | 59.5* | 7.1
COc1ccc(S(=O)(=O)N(CC(=O)NCc2ccco2)C2CCCCC2)cc1OC | . | . | . | . | 4.1 | . | 0.713 | 0.9 | 13.5 | -11.1
CC(C)Cc1ccc(C(C)C(N)=Nc2ccc(O)cc2)cc1 (centres undefined) | -44.2* | -32.2* | 2.4* | 3.7 | 4.5 | i | 0.691 | 1.1 | 26.4 | -0.3
COc1ccc(-n2c(SCC(=O)Nc3ccccc3)nc(O)cc2=O)cc1 | 20.8 | 8.9 | 6.0 | -0.7 | 1.9 | i | 0.645 | 0.6 | -11.8 | -0.8
Cc1ccc(CNC(=O)CCCc2nc3ccccc3s2)cc1 | -3.6 | -10.8 | 4.1 | -1.4 | 4.7 | i | 0.65 | 0.7 | -7.3 | 0.0
COc1ccc(N2CCN(C(=O)c3cn(CC4CCCCC4)nn3)CC2)cc1 | 0.8 | -18.9 | 2.4 | 2.3 | -0.7 | i | 0.663 | 0.0 | -18.0 | -3.9
CC(C(=O)N1CCc2ccccc21)N1CCc2ccccc2C1 (centres undefined) | . | . | . | . | 5.0 | . | 0.655 | 1.3 | 2.6 | -1.9
COc1ccc(/C=N/NC(=O)CCn2c3ccccc3c3ccccc32)cc1OC | 3.1 | -2.3 | -3.9 | 2.8 | . | i | . | -1.2 | 6.9 | -5.5
O=C(NCc1ccco1)/C(=C/c1ccco1)NC(=O)c1ccco1 | 14.6 | 9.2 | 11.0 | -1.7 | 1.9 | i | 0.676 | -0.5 | 5.7 | -1.5
COc1ccc(CN2CCC(C(=O)Nc3ccc(Oc4cccnc4)cc3)CC2)cc1 | 4.6 | 1.4 | 1.4 | 4.3 | 2.5 | i | 0.66 | 0.8 | 14.3 | -4.5
O=C(CSc1nnc(NC(=O)c2ccccc2F)s1)NCC1CCCO1 (centres undefined) | 3.1 | 7.7 | -1.0 | -2.3 | 2.4 | i | 0.697 | -2.1 | -4.6 | -3.0
O=C(CSC1=NC(=O)C(c2ccccc2)C(=O)N1)Nc1ccccc1[N+](=O)[O-] (centres undefined) | 0.3 | -1.9 | -1.7 | -2.8 | 8.6 | . | 0.656 | 0.3 | 9.4 | .
Cc1ccc(S(=O)(=O)N2CCOCC2)cc1NC(=O)CNc1ccccc1N1CCCC1=O | 13.1 | 8.5 | 1.8 | 0.4 | 1.3 | i | 0.68 | . | . | .
Clc1ccc2nc(CSCc3ccccc3)cn2c1 | -15.3 | -12.5 | -2.4 | -4.4 | 0.1 | i | 0.634 | 1.4 | -13.7 | .
O=C(NN1CCOCC1)c1cc(Cl)ccc1Cl | 4.5 | 6.1 | 0.2 | -0.6 | -1.2 | i | 0.713 | 0.7 | -17.2 | -1.4
Cc1ccccc1C(=O)NC1CCN(CC(=O)Nc2ccccc2Cl)CC1 | -6.0 | -7.4 | 1.5 | 0.6 | 6.0 | i | 0.677 | 0.2 | 7.6 | 1.3
Cc1ccc(C(=O)CCNc2ccccc2)o1 | . | . | . | . | -0.5 | . | 0.713 | -0.1 | 10.1 | -8.6
O=C(CSc1nnc(CNC(=O)c2ccco2)o1)Nc1nc2ccccc2s1 | 2.4 | -1.9 | 1.3 | -3.9 | 2.5 | i | 0.697 | -0.1 | -13.9 | 2.9
Cc1ccc(Nc2ncnc3c2cnn3C)c(C)c1 | -4.6 | -9.3 | -0.1 | 1.2 | 1.9 | i | 0.635 | 0.6 | -11.8 | -0.4
CN(C(=O)C1CCOC1)c1nnc(-c2ccncc2)s1 (centres undefined) | . | . | . | . | -7.4 | . | 0.719 | -0.8 | 4.9 | -2.0
O=C(NCCN1CCOCC1)c1ccc(Cl)c([N+](=O)[O-])c1 | 9.6 | 5.4 | -2.7 | 2.4 | 2.4 | i | 0.687 | 0.9 | -0.7 | .
OCCC1CN(Cc2nc3ccccc3[nH]2)CCN1C1CCCC1 (centres undefined) | 3.5 | 2.8 | -0.9 | 0.8 | -1.8 | i | 0.728 | 2.3 | -1.3 | -4.0
N#Cc1cn(CC(=O)NCC2CCCO2)c2ccccc12 (centres undefined) | 8.3 | 5.7 | 2.0 | 1.9 | -1.7 | i | 0.706 | 0.9 | -1.6 | -4.5
Cc1ccc(S(=O)(=O)CCC(=O)N2CCN(c3ccc(Cl)cc3)CC2)cc1 | -26.2 | -36.5 | -1.2 | 3.9 | 2.1 | i | 0.714 | 0.0 | 14.2 | 0.9
O=C(N/N=C/c1sc(=O)n(-c2ccccc2)c1Cl)c1ccccc1 | -6.8 | -2.2 | -3.8 | 4.2 | . | i | . | -7.2 | -16.4 | -2.8
CC(C)C(=O)NC(=S)Nc1c(Cl)ccc2nsnc12 | -3.1 | -6.5 | 0.5 | -0.6 | 6.3 | i | 0.64 | 0.3 | 9.0 | -1.6
COCCN(C(=O)CSc1nc2ccc(C)cc2[nH]1)c1c(N)n(Cc2ccccc2)c(=O)[nH]c1=O | 11.3 | 11.3 | 1.9 | 1.6 | -0.7 | i | 0.655 | -0.2 | -7.7 | -2.5
O=C(O)Cc1sc(Nc2cccc3ccccc23)nc1-c1ccc(Cl)cc1 | -4.1 | -3.0 | 4.7 | -4.2 | -11.8 | i | 0.69 | 0.2 | 11.1 | .
CCOc1cc(-c2nc3n(c(=O)c2C#N)CCS3)ccc1O | 5.2 | 4.9 | 1.3 | 0.2 | 8.3 | i | 0.682 | -2.1 | -9.8 | -4.3
c1ccc2sc(NC3=NCN(Cc4ccc5c(c4)OCO5)CN3)nc2c1 | . | . | . | . | 3.0 | . | 0.743 | -0.2 | 21.0 | -5.9
COc1cc(SC)ccc1C(=O)NCC1CCCCC1 | -9.1 | -3.8 | -2.1 | -14.6 | 6.7 | i | 0.654 | 1.0 | -3.7 | 9.6
CCOc1ccc(S(=O)(=O)NCc2ccc(OC)cc2)c2cccnc12 | -5.6 | -6.4 | -2.2 | -2.2 | -0.9 | i | 0.722 | -0.2 | -17.8 | -2.9

An excerpt from above in order of their number in Ecoli rRNA inh, high to low.
SMILES,Ecoli rRNA inh,Ecoli rRNA inh OD600,Ecoli rRNA inh RFP,MLL AF4-AF9 inh,UCH37 inh,FGF22 binding,E coli growth
Cc1ccc(S(=O)(=O)N2CCOCC2)cc1NC(=O)CNc1ccccc1N1CCCC1=O,13.1,8.5,1.8,0.4,1.3,i,0.68
COCCN(C(=O)CSc1nc2ccc(C)cc2[nH]1)c1c(N)n(Cc2ccccc2)c(=O)[nH]c1=O,11.3,11.3,1.9,1.6,-0.7,i,0.655
O=C(CSc1nnc(CNC(=O)c2ccco2)o1)Nc1nc2ccccc2s1,2.4,-1.9,1.3,-3.9,2.5,i,0.697
Clc1ccc2nc(CSCc3ccccc3)cn2c1,-15.3,-12.5,-2.4,-4.4,0.1,i,0.634

Random excerpt: 2 entries already listed
mol | Ecoli rRNA inh | Ecoli rRNA inh OD600 | Ecoli rRNA inh RFP | MLL AF4-AF9 inh | UCH37 inh | FGF22 binding | E coli growth | A1 inh | T cruzi repl | Beta cell apopt
CN(C(=O)C1CCOC1)c1nnc(-c2ccncc2)s1 (centres undefined) | . | . | . | . | -7.4 | . | 0.719 | -0.8 | 4.9 | -2.0
Cc1ccc(S(=O)(=O)N2CCOCC2)cc1NC(=O)CNc1ccccc1N1CCCC1=O | 13.1 | 8.5 | 1.8 | 0.4 | 1.3 | i | 0.68 | . | . | .

These rows are one share of the data. The share of hits here may be higher or lower than overall.
